# Beta apoptosis: beta cell apoptosis inhibition; INS-1E cytokine-induced death, ATP luminescence, 48 h; percent of positive-control rescue, neutral wells zero; protection from apoptosis, % (concentration not given with the values); hit rate 0.8% among 300,000; AID 435005;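 active means all replicates at 75% or more, or half of them and the mean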;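 further: 0% = cytokine-treated negative control wells and 100% = positive control rescue; higher means more ATP so stronger rescue from cytokine killing; wells of about 40 µL received 100 nL stock; the first replicate is given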
# Bfl-1 A1 inh: inhibitors of the anti-apoptotic protein A1, read as caspase activation. hit rate 0.066% among 330,000. MEF A1-2A-BIM cells, Caspase-Glo 3/7 luminescence, 3 h; percent of clofoctol response, vehicle zero. AID 2462. caspase activation, % (concentration not given with the values);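 active means over half of replicate activation scores above 10%, or exactly half above 10 with the replicate mean above 10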;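 further: wells of about 30 µL received 50 nL stock; many hits fall short of the cut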
# Ecoli rRNA inh: inhibitors of bacterial rRNA selective over humanized ribosomes. hit rate 1.6% among 350,000. GFP signal change (wild-type ribosome), % (no concentration beside the values). E. coli WT GFP vs humanized-ribosome RFP mutants, fluorescence, 24 h; active compounds read low; DMSO median 0, no signal -100;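 active means significant combined selectivity score with lowered wild-type GFP, culture density cut under 30%, mutant RFP and density less affected; inactive means any of these conditions unmet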; further: one replicate is shown; some compounds called inactive have numbers as strong as hits
# FGF22 binding: binders of recombinant human FGF22 by thermal shift; SYPRO orange fluorescence; percent of sucrose octasulfate shift, DMSO zero; calls only at 9.99 µM; hit rate 1.5% among 340,000;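 active means melting point raised past a set limit in the mean and every replicate; three in four hits are not shown here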
# Target sequence (Q9HCT0 whole entry, looked up): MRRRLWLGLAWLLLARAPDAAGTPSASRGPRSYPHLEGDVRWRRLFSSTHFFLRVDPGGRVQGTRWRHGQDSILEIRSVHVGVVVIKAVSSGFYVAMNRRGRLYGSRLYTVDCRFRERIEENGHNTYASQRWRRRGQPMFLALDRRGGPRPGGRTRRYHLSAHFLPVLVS
# T cruzi repl: blocks replication of Trypanosoma cruzi; inhibition, % (concentration not given with the values); AID 1885; T. cruzi beta-gal in NIH3T3, luminescence, 90 h; hit rate 1.4% among 300,000;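 active means mean inhibition across valid replicates above about 55%, limit read from the data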;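 further: signal also drops with host cell toxicity which is not excluded here; 0% = plate median of DMSO wells and 100% = zero luminescence signal; higher percent means less beta-gal luminescence so fewer parasites; stock transfer was 50 nL into about 50 µL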
# MLL AF4-AF9 inh: blocks AF4 peptide binding to human AF9 | P42568 | AlphaScreen, biotin-AF4 peptide binding to FLAG-AF9 | inhibition, % at 10 µM | hit rate 0.47% among 350,000 | AID 651704;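 active means every replicate reaching a set inhibition limit, whatever the replicate mean, cut at about 25% in these data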;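 further: 0% = plate neutral control median and 100% = total signal loss; the record names both 10 and 1 µM as test concentration; the first replicate is given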
# Target sequence (P42568 whole entry, looked up): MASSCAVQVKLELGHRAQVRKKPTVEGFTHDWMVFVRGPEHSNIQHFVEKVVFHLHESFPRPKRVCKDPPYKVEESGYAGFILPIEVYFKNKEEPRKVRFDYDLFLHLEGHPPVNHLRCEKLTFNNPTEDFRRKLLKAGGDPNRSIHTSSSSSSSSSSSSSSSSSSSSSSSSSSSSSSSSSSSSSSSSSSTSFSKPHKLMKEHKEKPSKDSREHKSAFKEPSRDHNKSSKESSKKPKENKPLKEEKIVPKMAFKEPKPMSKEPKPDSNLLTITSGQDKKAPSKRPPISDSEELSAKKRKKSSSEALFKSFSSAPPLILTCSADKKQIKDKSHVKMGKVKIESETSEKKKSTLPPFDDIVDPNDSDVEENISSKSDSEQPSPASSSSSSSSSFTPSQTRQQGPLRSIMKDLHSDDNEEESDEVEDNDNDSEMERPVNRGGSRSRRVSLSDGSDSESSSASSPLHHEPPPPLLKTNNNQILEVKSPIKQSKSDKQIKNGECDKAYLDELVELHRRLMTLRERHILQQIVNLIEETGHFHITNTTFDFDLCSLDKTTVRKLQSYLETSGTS
# Ecoli growth: inhibitors of Escherichia coli growth; OD600, 23 h; active compounds read low; OD600 absorbance (test concentration not listed); hit rate 0.21% among 330,000;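 active means OD600 absorbance below the run mean of sample wells minus 3.6 SD, in any replicate, cut at about 0.56 in these data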;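 further: stock transfer was 300 nL into about 60 µL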
# UCH37 inh: human UCH37 deubiquitinating enzyme inhibition. purified proteasome/UCH37, Ub-AMC cleavage fluorescence. Q9Y5K5. hit rate 0.33% among 330,000. AID 588478. inhibition, % (concentration not given with the values);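 active means mean of two replicates above 20%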;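 further: 0% = compound-free wells with enzyme and 100% = wells lacking proteasome; stock transfer was 100 nL into about 20 µL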
# Target sequence (Q9Y5K5 whole entry, looked up): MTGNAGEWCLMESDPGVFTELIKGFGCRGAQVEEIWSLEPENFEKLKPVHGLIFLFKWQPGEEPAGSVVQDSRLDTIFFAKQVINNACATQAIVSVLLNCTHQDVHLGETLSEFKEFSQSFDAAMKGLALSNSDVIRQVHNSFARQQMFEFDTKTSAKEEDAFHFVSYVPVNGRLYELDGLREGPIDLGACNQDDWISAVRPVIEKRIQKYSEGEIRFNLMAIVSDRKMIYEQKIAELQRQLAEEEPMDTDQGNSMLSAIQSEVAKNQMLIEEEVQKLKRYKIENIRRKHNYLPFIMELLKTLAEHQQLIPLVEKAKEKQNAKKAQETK
#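 System: Proteasome-associated human UCH37 deubiquitinase; Input: 0.15 nM proteasome in added enzyme buffer; Also added: Ub-AMC substrate from 1 µM stock; Incubation: 30 min compound-proteasome preincubation then 25 min substrate reaction, room temperature; Detection: fluorescence, ex 355 nm, em 460 nm; Read-out: % inhibition of Ub-AMC cleavage fluorescence; Benchmarks: no-proteasome and no-compound wells.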
# Ecoli rRNA inh OD600: second read-out of Ecoli rRNA inh, no call of its own (marks repeat the call); OD600 change, %; measured here: OD600 growth;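 optical density of the mix in the first replicate; 0 = DMSO median and -100 = no signal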
# Ecoli rRNA inh RFP: also measured in Ecoli rRNA inh; calls as there; RFP signal change, %; measured here: RFP humanized mutant strains;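 first replicate; 0 = DMSO median and -100 = no signal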
# * = called active by the depositor; i = inactive; / = no result given.
SMILES,Beta apoptosis,Bfl-1 A1 inh,Ecoli rRNA inh,Ecoli rRNA inh OD600,Ecoli rRNA inh RFP,FGF22 binding,T cruzi repl,MLL AF4-AF9 inh,Ecoli growth,UCH37 inh
CCCN1CCN(CCCNC(=S)Nc2ccc(F)cc2)CC1,2,-0.4,-2,-1,-0.9,i,-12,5.2,0.66,4.2
Cc1cc(C)cc(NC(=S)N(Cc2ccc(Br)cc2)Cc2ccc(C(=O)O)cc2)c1,-2,-0.5,-26,-25,-6.0,/,2,-1.9,0.67,2.2
COc1ccc(Nc2nc(Cl)nc(NCc3ccco3)n2)c(OC)c1,5,-0.2,/,/,/,/,6,/,0.75,4.6
CC(C)CC(=O)C1=C(O)C(=O)N(Cc2ccccc2)C1c1ccccc1 (centres undefined),-1,0.0,3,5,-0.2,i,-5,3.0,0.71,3.4
Cc1cc2oc(C(=O)NCc3ccc4c(c3)OCO4)c(C)c2cc1C,5,0.3,/,/,/,/,4,/,0.74,-0.4
COc1ccc(C)cc1NC(=O)C(=O)NCc1ccncc1,-8,1.2,/,/,/,/,-13,/,0.64,5.2
CC1(C)C(=O)Nc2ccccc2N1C(=O)COc1ccccc1C#N,-1,-0.4,-21,-26,1.2,i,/,-1.1,0.64,-0.3
CC(=O)Nc1ccc(C(=O)NNC(=O)c2ccc(Cl)cc2)cc1,/,-0.6,8,5,-1.9,i,9,-6.2,0.71,2.0
Cc1ccccc1CC1S/C(=N/N=C/c2ccco2)NC1=O (centres undefined),-3,-0.1,2,21,4.9,/,-44,-0.7,/,/
CS(=O)(=O)N1CCN(C(=O)CCC2CCCC2)CC1,3,0.0,/,/,/,/,-6,/,0.74,-0.4
COC(=O)[C@@H](NC(=O)Nc1ccc(OC(F)(F)F)cc1)C(C)C,0,0.8,/,/,/,/,-12,/,0.76,0.0
O=C(CSc1nnc(C2COc3ccccc3O2)o1)N1CCCC1 (centres undefined),-3,-0.3,4,-1,0.1,i,1,-1.7,0.66,1.3
CC1=NN(C(=O)COc2ccc(C)c(C)c2)C(O)(c2ccc(Cl)cc2)C1 (centres undefined),0,0.2,/,/,/,/,14,/,0.7,2.3
COc1ccc(C(=O)N=C2SC3CS(=O)(=O)CC3N2c2ccccc2)cc1OC (centres undefined),-3,0.6,4,8,1.9,i,2,0.9,0.66,-0.4
COc1cc(NC(=O)NCc2ccco2)ccc1-c1ccc(NC(=O)NCc2ccco2)cc1OC,/,/,16,3,-0.1,i,/,-1.9,0.74,-10
O=c1c2c3c(sc2ncn1/N=C/c1cccnc1)CCCC3,-3,-0.1,-11,-18,-1.8,/,-5,0.4,/,/
CC1CCCCC12NC(=O)N(CC(=O)N1CCN(S(=O)(=O)Cc3ccccc3)CC1)C2=O (centres undefined),1,0.0,3,-6,-5.6,i,/,4.3,0.68,0.3
COc1ccc(OCC(O)CNS(=O)(=O)c2cccc(Cl)c2)cc1 (centres undefined),-1,0.4,-21*,6.7*,6.8*,i,4,-13,0.69,1.8
O=c1cc(CN2CCN(S(=O)(=O)c3ccc4ccccc4c3)CC2)nc2sccn12,-2,-0.7,1,-1,2.0,i,16,-1.9,0.67,0.6
O=C(Cc1c(F)cccc1Cl)NNC(=O)c1ccc(Br)s1,1,1.7,6,10,-0.3,i,/,-1.8,0.72,3.6

# Two compounds from above with just T cruzi repl:
Structure,T cruzi repl
COc1ccc(OCC(O)CNS(=O)(=O)c2cccc(Cl)c2)cc1 (centres undefined),4
O=c1cc(CN2CCN(S(=O)(=O)c3ccc4ccccc4c3)CC2)nc2sccn12,16

# Part of the list above in order of heavy-atom count, rising.
SMILES,Beta apoptosis,Bfl-1 A1 inh,Ecoli rRNA inh,Ecoli rRNA inh OD600,Ecoli rRNA inh RFP,FGF22 binding,T cruzi repl,MLL AF4-AF9 inh,Ecoli growth,UCH37 inh
CS(=O)(=O)N1CCN(C(=O)CCC2CCCC2)CC1,3,0.0,/,/,/,/,-6,/,0.74,-0.4
O=C(Cc1c(F)cccc1Cl)NNC(=O)c1ccc(Br)s1,1,1.7,6,10,-0.3,i,/,-1.8,0.72,3.6
Cc1ccccc1CC1S/C(=N/N=C/c2ccco2)NC1=O (centres undefined),-3,-0.1,2,21,4.9,/,-44,-0.7,/,/
CC(=O)Nc1ccc(C(=O)NNC(=O)c2ccc(Cl)cc2)cc1,/,-0.6,8,5,-1.9,i,9,-6.2,0.71,2.0
COc1ccc(OCC(O)CNS(=O)(=O)c2cccc(Cl)c2)cc1 (centres undefined),-1,0.4,-21*,6.7*,6.8*,i,4,-13,0.69,1.8
CC1(C)C(=O)Nc2ccccc2N1C(=O)COc1ccccc1C#N,-1,-0.4,-21,-26,1.2,i,/,-1.1,0.64,-0.3
CC1=NN(C(=O)COc2ccc(C)c(C)c2)C(O)(c2ccc(Cl)cc2)C1 (centres undefined),0,0.2,/,/,/,/,14,/,0.7,2.3
COc1ccc(C(=O)N=C2SC3CS(=O)(=O)CC3N2c2ccccc2)cc1OC (centres undefined),-3,0.6,4,8,1.9,i,2,0.9,0.66,-0.4
O=c1cc(CN2CCN(S(=O)(=O)c3ccc4ccccc4c3)CC2)nc2sccn12,-2,-0.7,1,-1,2.0,i,16,-1.9,0.67,0.6
CC1CCCCC12NC(=O)N(CC(=O)N1CCN(S(=O)(=O)Cc3ccccc3)CC1)C2=O (centres undefined),1,0.0,3,-6,-5.6,i,/,4.3,0.68,0.3
COc1cc(NC(=O)NCc2ccco2)ccc1-c1ccc(NC(=O)NCc2ccco2)cc1OC,/,/,16,3,-0.1,i,/,-1.9,0.74,-10

# (more compounds)
SMILES,Beta apoptosis,Bfl-1 A1 inh,Ecoli rRNA inh,Ecoli rRNA inh OD600,Ecoli rRNA inh RFP,FGF22 binding,T cruzi repl,MLL AF4-AF9 inh,Ecoli growth,UCH37 inh
CN(C(=O)/C=C/c1ccccc1)C1CCCCC1,/,-2.6,-13,-13,0.4,i,-3,-3.8,0.65,6.7
O=C(NNC(=O)c1ccccc1C(=O)O)c1ccc(O)cc1,-6,-0.8,20,16,-0.1,i,-6,0.1,0.74,1.9
O=c1[nH]c(/C=C\c2ccc(O)cc2)nc(O)c1[N+](=O)[O-],/,0.4,21,15,5.9,i,1,-7.2,0.7,18
COc1cccc(C(=O)N[C@@H](CCSC)c2nc3ccccc3[nH]2)c1,-3,1.0,-10,-18,-3.8,i,3,2.4,0.71,-2.5
Cc1ccsc1/C=N/NC(=O)C(N)=O,0,0.2,20,13,-0.4,i,13,-2.1,/,/
COc1ccccc1N1CC(O)=C(c2nc3ccccc3c(=O)[nH]2)C1=N,-10,0.0,-9,-6,6.7,i,-1,6.8,0.67,-58
COc1ccc(CC(=O)NCc2nnc(SCC(=O)Nc3nccs3)n2-c2ccccc2)cc1,3,0.1,-3,2,-3.5,i,0,-2.6,0.72,1.3
CCc1cc(=O)[nH]c(SCC(=O)Nc2ccc3c(c2)OCCO3)n1,-3,0.7,4,-2,0.4,i,5,0.1,0.7,0.0
S=c1[nH]nc(-c2ccncc2)n1/N=C/c1ccccc1Cl,-1,0.2,4,7,-0.3,i,1,-2.1,/,/
O=C(Nc1cccc(F)c1)c1ccc(S(=O)(=O)NCC2CCCO2)cc1 (centres undefined),5,-0.3,/,/,/,/,-32,/,0.66,4.8
CCOC(=O)c1nnn(-c2nonc2N)c1COc1ccc(F)cc1,2,0.1,/,/,/,/,1,/,0.7,3.5
Cc1[nH]c(=O)c(C#N)c(C)c1CCC(=O)NCc1cccc(C(F)(F)F)c1,-9,-0.1,6,7,-2.1,/,-25,-0.5,0.66,-2.8
O=C(CCS(=O)(=O)c1ccc2c(c1)NC(=O)CS2)NCc1cccs1,-3,-0.5,3,3,1.4,i,-4,-5.4,0.69,7.0
CCCOc1ccccc1NC(=O)/C=C/C(N)=O,-10,1.0,/,/,/,/,-21,/,0.69,0.1
COC(=O)[C@@H](NC(=O)N1CCN(C(=O)C2COc3ccccc3O2)CC1)C(C)C (some centres undefined),7,-0.2,5,6,-1.0,i,-8,-3.1,0.65,2.9
CCCCNC(=O)N1c2ccccc2CC1C (centres undefined),3,-0.9,13,8,-2.0,i,-2,-1.0,0.7,2.8
O=C(NCc1cccc(Cl)c1)c1ccc2nc(N3CCOCC3)sc2c1,6,-0.1,0,-24,9.2,i,-3,-0.3,0.76,6.4
Cc1nc2ccc(NC(=O)c3cccs3)cc2c(=O)n1Cc1ccc(Cl)cc1,15,-0.6,/,/,/,/,44,/,0.71,-2.1
Cn1c(SCC(=O)Nc2cccc(Br)c2)nnc1-c1cc2ccccc2o1,-2,/,/,/,/,/,-5,/,0.65,2.3
CCOC(=O)Cn1c(=NC(=O)C2COc3ccccc3O2)sc2cc(S(N)(=O)=O)ccc21 (centres undefined),27,0.1,-38,-41,-0.1,i,13,1.9,/,/
CCc1noc(C)c1C(=O)N(Cc1ccccc1)c1c(N)n(CCOC)c(=O)[nH]c1=O,1,0.1,11,10,-1.8,i,0,-1.6,0.67,0.8
CN(C(=O)COC(=O)c1cc(F)c(F)cc1Cl)c1ccccc1,-1,-0.5,5,4,-2.2,i,-1,1.1,0.67,0.7
CC1(C(=O)OCC(=O)Nc2ncc(Cl)cc2Cl)CC1(Cl)Cl (centres undefined),/,/,8,-2,0.6,/,/,-1.9,0.66,2.8
CCOc1ccccc1N1CCN(C(=O)c2ccc(Cl)c(S(=O)(=O)N3CCCCC3)c2)CC1,/,/,-25,-28,-0.8,i,/,3.2,0.71,3.9
COc1ccccc1CNC(=O)CS(=O)Cc1nc(-c2ccc(OC)c(OC)c2)oc1C (centres undefined),-6,-0.4,3,12,5.9,i,4,-3.2,0.71,0.6
Cc1ccc(NC2CCCN(C(=O)c3cccs3)C2)cc1C (centres undefined),/,/,-2,-4,0.0,i,-7,8.6,0.66,3.0
Cc1cc(C)cc(Oc2ccccc2C=O)c1,-10,1.3,/,/,/,/,-2,/,0.67,-1.9
O=C(CSc1ccc(F)cc1)Nc1ccc(N2CCOCC2)c(Cl)c1,-5,0.9,5,-21,3.1,i,8,-0.4,0.69,1.5
COc1cc(CO)ccc1OCC(=O)N1CCc2ccccc21,-1,1.9,12,4,2.7,i,1,-0.7,0.73,1.9
COc1ccc(OCC(=O)Nc2ccc3c(c2)nc(CCN2CCCCC2)n3C)cc1,-6,0.3,5,9,0.9,i,7,1.0,0.67,-0.8
Cc1ccc2c(c1)C(CCN)C(=O)N2Cc1ccccc1 (centres undefined),-6,0.1,/,/,/,/,-9,3.1,0.76,-2.0
O=C1CCCC2=C1C(c1ccco1)Nc1ccc(C(=O)c3ccccc3)cc1N2 (centres undefined),-6,0.3,/,/,/,/,6,/,0.76,-2.2

# Screening results as filed in PubChem BioAssay.

# This is a subset. The share of hits here may be higher or lower than overall.
